GIV Gai3 FP – inhibitors of GIV peptide binding to Galpha-i3, primary screen, biochemical, fluorescence polarization, FITC-GIV GBA peptide, rat Galphai3. AID 1224905, 2016. 210,000 tested, 0.42% active. percent of control (FP), % (concentration not given with the values). 90 min; stronger effect = lower value; scaled: aluminum fluoride 0%, vehicle 100%. Guanine nucleotide-binding protein G(i) subunit alpha-3 (Rattus norvegicus), P08753;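 active = replicate mean at 85% of control or lower, very high polarization wells dropped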;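 note: wells of about 15 µL received 100 nL stock; the first replicate is given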
Target sequence (P08753 whole entry, looked up): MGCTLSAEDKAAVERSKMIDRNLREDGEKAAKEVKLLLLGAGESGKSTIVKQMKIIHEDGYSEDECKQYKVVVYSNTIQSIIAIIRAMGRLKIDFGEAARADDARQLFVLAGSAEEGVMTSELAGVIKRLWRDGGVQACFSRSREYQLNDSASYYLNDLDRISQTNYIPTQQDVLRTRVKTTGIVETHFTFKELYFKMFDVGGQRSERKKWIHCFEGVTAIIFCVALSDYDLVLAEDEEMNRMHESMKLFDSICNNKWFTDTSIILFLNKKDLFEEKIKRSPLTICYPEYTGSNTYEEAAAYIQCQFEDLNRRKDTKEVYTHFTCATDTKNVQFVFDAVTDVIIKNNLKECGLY
Sa growth 42C – S. aureus growth inhibition at 42 and 30 °C, primary screen, LtaS inhibitor project, RN4220, two temperatures. AID 720641, 2013. 170,000 tested, 0.53% active. relative growth, % (no concentration beside the values). OD600, 20 h, 42 °C; stronger effect = lower value;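 active = growth at 42 °C up to 50% and 20 or more points under that at 30 °C, or under 10% at both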;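 note: 300 nL library stock went into each well; scaled to the means of positive and negative controls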
HCMV NEC inh – inhibitors of HCMV UL50-UL53 interaction, biochemical, HTRF; HCMV UL50-UL53 nuclear egress complex (human cytomegalovirus); 190,000 tested, 0.15% active; AID 1918969, 2023; normalized percent inhibition; inhibition, % (no concentration beside the values);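 active = both replicates at 50% or more, plus weaker picks with an unusually low signal ratio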;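 note: stock transfer was 100 nL into about 20 µL; 0% = negative control wells and 100% = wells with untagged competitor protein; inactives centre near -12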
Sa growth 42C second temp – also measured in Sa growth 42C; calls as there; relative growth, %; measured here: growth at 30 °C;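 optical density after 20 h as mean of two plates; 100% = untreated growth and lower means inhibition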
Active calls of the source: *; . = no result given; & = joins results of further samples. No enrichment for hits; any-hit rate near 0.79%.

SMILES | GIV Gai3 FP | Sa growth 42C | Sa growth 42C second temp | HCMV NEC inh
CCC(=O)N1N=C(c2c(-c3ccccc3)c3cc(Cl)ccc3[nH]c2=O)CC1c1ccc(N(C)C)cc1 (stereo not given) | 103 | . | . | -13
CCc1nnc(SCc2cccc(Cl)c2)c2cc3sccc3n12 | 104 | 88 | 69 | -28
O=C1NN=C(CN2CCN(c3ccccc3F)CC2)Oc2ccccc21 | 98 | . | . | -16
Cc1ccc2[nH]c(CSc3nnc(NC(=O)c4ccc(Cl)cc4)s3)cc(=O)c2c1 | 103 | 97 | 94 | .
O=C(Cn1ncc2c(=O)oc3ccccc3c21)Nc1cccc(Cl)c1 | 103&99 | 124 | 78 | -20
N#Cc1ccc(Sc2ccccc2)nc1 | 99 | 95 | 86 | 0
COc1cc(-c2nc3ccccn3c2N)ccc1O | 24* | . | . | 94*
COc1cccc(NC(=O)C2CCN(S(=O)(=O)c3cccc4nonc34)CC2)c1 | 106 | 108 | 89 | -14
Oc1ccc(NC(=S)Nc2ccc(O)cc2)cc1 | 108 | 137 | 95 | -11
O=C(c1ccccc1)c1ccccc1NC(=O)c1ccccc1C(=O)O | 107 | 102 | 100 | .
CCCc1nnc(C(=O)Nc2cccc(C(=O)N3CCN(c4ccccn4)CC3)c2)s1 | 108 | . | . | -13
O=C1c2ccccc2C(=O)N1CCOc1ncnc2c(Cl)cc(Cl)cc12 | . | 94 | 89 | -20
CC(C)NC(=S)N/N=C/c1ccn[nH]1 | 110 | 100 | 85 | -28
Cc1ccc(NC(=O)c2ccccc2C)cc1 | 108 | 124 | 101 | -5
COc1ccc(NC(=O)CSc2nc3ccccc3c(=O)n2CCNC(C)=O)c(OC)c1 | 100 | 89 | 85 | 2
CCOC(=O)c1ccc(NC(=O)Cn2c3ncccc3c(=O)n2-c2ccc(CC)cc2)cc1 | 109 | . | . | -15
CC(=O)NC1(c2ccccc2)CCNCC1 | 102&97 | 106 | 82 | -16&-25
O=C(CSc1ncnc2sc3c(c12)CCCC3)c1ccccc1 | . | 83 | 95 | 8
O=S(=O)(Nc1ccc2c(c1)OCCO2)c1ccc(-c2ccccn2)s1 | 101 | 97 | 84 | -39
COC(=O)c1cccc(NC(=O)CC(C)C)c1 | 103 | 108 | 100 | -6
Cc1ccc(-c2nnc3c4ccccc4n(Cc4ccccc4)cc2-3)cc1 | 106 | . | . | -48
NS(=O)(=O)c1ccc(-c2ccc(/C=C3\COc4ccccc4C3=O)o2)cc1 | . | 78 | 67 | -40
Cc1ccc(CN2CCSc3ccc(C(=O)NCC(C)c4ccccc4)cc32)cc1 (stereo not given) | 109 | 112 | 91 | 1
CC(C)n1nnc(CC(N)=O)n1 | 102 | 92 | 87 | 2
CC(c1ccccc1)C1C(C#N)=C(N)OC2=C1C(=O)CC(C)(C)C2 (stereo not given) | 101 | 110 | 78 | -9
Further entries follow.
SMILES | GIV Gai3 FP | Sa growth 42C | Sa growth 42C second temp | HCMV NEC inh
COc1cc(OC)cc(C(=O)Nc2cccc(-c3nn4c(C)nnc4s3)c2)c1 | 102 | 92 | 81 | -32
CCCCC(=O)Nc1cccc(-c2cn3ccsc3n2)c1 | 110 | 111 | 84 | -12
O=C(Cn1c(-c2ccccc2F)nc2ccccc2c1=O)N1CCN(c2ccc(F)cc2)CC1 | 100 | . | . | -28
COc1ccc(NC(=O)C2=C(C)C(=O)OC23CCN(S(C)(=O)=O)CC3)cc1OC | 112 | . | . | -9
CCCOc1ccc(C2Nc3ccccc3NC3=C2C(=O)CC(c2ccc(OC)c(OC)c2)C3)cc1OC (stereo not given) | 102 | . | . | -6
Cc1cccc(N2CCN(C(=O)CS(=O)(=O)Cc3nc(-c4ccccc4F)oc3C)CC2C)c1 (stereo not given) | 97 | 111 | 85 | -2
CCN(CC(=O)Nc1ccc(NC(C)=O)cc1)C(=O)Cc1ccccc1F | . | 96 | 88 | -18
NS(=O)(=O)c1ccc(CCNC(=O)C(Cc2ccccc2)NS(=O)(=O)c2cccc3nsnc23)cc1 (stereo not given) | 98 | . | . | -85
CCN(CC)CCc1c(O)n(-c2ccccc2)n(-c2ccccc2)c1=O | . | 97 | 93 | -6
Cc1cc(Br)ccc1NCc1ccc2c(c1)OCO2 | 103 | 96 | 79 | .
COc1cccc(CNc2ncn[nH]2)c1 | 104 | 96 | 87 | -20
COc1ccccc1NC(=O)Nc1nc(CC(=O)Nc2ccc(Br)cc2F)cs1 | 120 | . | . | -12
O=C(Nc1ccc(F)cc1F)c1ccc(NC(=O)N2CCSc3ncccc32)cc1 | 105 | . | . | 4
Cc1ncc(CO)c2c1Oc1nc(-c3ccccc3Cl)nc(SCc3ccccc3F)c1C2 | 98 | 128 | 105 | .
COc1cc(OC)c(NC(=O)c2cc(C)nc3c2c(C)nn3-c2ccc(C)cc2)cc1Cl | 102 | 76 | 91 | .
CSc1cccc(NC(=O)C2CCN(S(=O)(=O)c3ccc4[nH]c(=O)ccc4c3)CC2)c1 | 101 | 99 | 83 | .
CC(C)Cn1c(SCC(=O)N2CCCC2=O)nc2cc(Cl)ccc2c1=O | . | 91 | 88 | -12
CCc1c(C)sc2c1CCN(C(=O)Nc1ccccc1Cl)C2c1ccc(OC)cc1 (stereo not given) | 99 | 94 | 89 | .
NC(=O)C1CC(=O)N(Cc2ccccc2)C1 (stereo not given) | 101 | . | . | -9
COc1ccc(CCNC(=O)c2cc(Nc3ccccc3)nc3ccccc23)cc1OC | 110 | 102 | 107 | .
N=c1c2c3c(sc2ncn1CCN1CCOCC1)CCCCC3 | 100 | 96 | 88 | -15
COc1cccc(C(=O)Nc2c3c(nn2-c2ccc(C)cc2C)CS(=O)(=O)C3)c1OC | 106 | 115 | 99 | .
C=CCOc1ccc(NC(=O)c2cc3cc(OC)ccc3n2C)cc1 | 102 | . | . | -13
O=S(=O)(NCC12CC3CC(CC(C3)C1)C2)c1ccc(Cl)c2ccccc12 | . | 110 | 84 | -10
Cc1ccc(S(=O)(=O)N2C(=O)CCC2C(=O)NC2CCCC2)cc1 (stereo not given) | 103 | . | . | -19
Next part
SMILES | GIV Gai3 FP | Sa growth 42C | Sa growth 42C second temp | HCMV NEC inh
CCCCn1c(NCc2ccc(N(C)C)cc2)nc2ccccc21 | 105 | 78 | 81 | -20
CC(=O)N1CCN(c2csc3ccc(F)cc3c2=O)CC1 | 102 | 95 | 90 | .
Cc1nnc2c(SCc3ccccc3F)nc3ccccc3n12 | 108 | . | . | -18
Fc1ccc(-c2ccc(CNCC3CCNCC3)o2)cc1 | 106 | . | . | 2
COc1cc(-c2cc(OC)c3c(C)oc(C)c3c(=O)c2)ccc1OC(=O)c1ccccc1Cl | 115 | 100 | 80 | -36
Cc1ccc(Oc2ncccc2C(=O)n2ccc(-c3cccs3)n2)cc1 | 109 | 88 | 81 | -22
CC(=O)N1C(=O)/C(=C2\SC(=S)N(NC(=O)c3ccc(O)cc3)C2=O)c2ccccc21 | 104 | . | . | -12
O=C(NCCc1c[nH]c2ccc(Cl)cc12)c1cccc(Cn2c(=O)c3cccn3c3cccnc32)c1 | 108 | . | . | -19
O=C(NC1CCCCC1)c1ccco1 | 99 | 97 | 84 | -11
C=CCN(C(=O)c1ccccc1)c1ccc(OC)cc1 | 95 | 110 | 79 | -13
O=C(c1ccc(F)cc1)c1c[nH]c(C(=O)NCc2ccco2)c1 | 100 | . | . | 8
Cc1nc2ccn(Cc3ccco3)c(=O)c2cc1C(=O)N1CCN(c2ccccc2)CC1 | 94 | 75 | 88 | .
CC(C)Oc1ccc(Cc2cnc(=S)[nH]c2N)cc1 | 103 | 91 | 95 | -26
CCOC(=O)C1=C(C)NC(=O)CC1c1ccccc1C(F)(F)F (stereo not given) | 99 | . | . | -18
COc1ccc(NC(=O)C(NC(=O)Cc2cccs2)c2ccc(OC)cc2)cc1 (stereo not given) | 100 | 101 | 106 | 7
Cc1nn(-c2ccc(F)cc2)c(-n2cccc2)c1C(=O)NCC(C)c1ccccc1 (stereo not given) | 105 | 80 | 83 | -7
CCOc1ccc(-n2c(N)c3c(N)nc(N4CCOCC4)c(C#N)c3c(C#N)c2=S)cc1 | . | 92 | 91 | 8
O=C1c2ccccc2C(=O)N1CCCn1nnc(-c2ccc(N3CCOCC3)cc2)n1 | 101 | 109 | 77 | 5
c1ccc2cc3c(Nc4ccc(N5CCOCC5)cc4)ccnc3cc2c1 | 93 | 99 | 87 | .
COc1ccc(OCCn2c(CCNC(=O)c3cccc(C)c3)nc3ccccc32)cc1 | 101 | . | . | -10
CC(C)CCn1c(SCc2ccccc2F)nc2nccnc2c1=O | 101 | 80 | 81 | -9
CCCOc1ccc(C2C(=O)N(C3CCC(C)CC3)CC(=O)N2CCC2=CCCCC2)cc1OC (stereo not given) | 102 | 100 | 91 | .
CCC(=O)N1c2ccccc2CC1C(=O)NCc1ccccc1C (stereo not given) | 102 | 99 | 99 | .
COc1ccc(N2C(=O)/C(=C/c3cc(Br)c(N4CCOCC4)o3)C(=O)NC2=S)cc1 | 121 | . | . | -18
CS(=O)(=O)c1ccc(Cl)c(NC(=O)C2CCCC2)c1 | . | 104 | 94 | -2
Later entries
SMILES | GIV Gai3 FP | Sa growth 42C | Sa growth 42C second temp | HCMV NEC inh
COc1ccc(-c2[nH]ncc2C(=O)NC2CCCCC2)cc1 | 104&101 | 89 | 91 | -28
CC(Sc1nc(C2CC2)n(-c2ccccc2)n1)C(=O)NCc1ccc2c(c1)OCO2 (stereo not given) | . | 122 | 108 | 13
Cc1ccc2c(c1)CCCN2CC(=O)NCC(F)(F)F | . | 100 | 101 | -3
Cc1noc(C)c1CSc1ncccc1C(=O)N1CCN(S(=O)(=O)c2ccccc2C#N)CC1 | . | 72 | 89 | -27
Clc1ccc(-c2cc3nnc(-c4ccccc4)nc3s2)cc1 | 101 | 100 | 108 | 13
CC1(C)OC(=O)C(C#N)=C1/C=C/c1ccco1 | 109 | 100 | 106 | -70
COc1ccc(N2CCN(C(=O)Cc3coc4ccc(C)cc34)CC2)cc1 | 101 | 116 | 91 | 1
COc1ccc(NC(=O)CSc2nccn2C2CCCC2)cc1OC | 103 | 113 | 88 | .
COc1ccc(NS(=O)(=O)c2ccc(NS(=O)(=O)c3ccc4c(c3)OCCO4)cc2)cc1 | 100 | 98 | 83 | -27
CCOC(=O)c1c(NC(C)=O)no[n+]1[O-] | 105 | 114 | 94 | .
COc1ccc(OCC(Cn2cnc3ccccc32)OC(C)=O)cc1 (stereo not given) | 102 | 118 | 76 | -15
O=C(NCCN1CCOCC1)c1nn2c(c1Br)NC(c1ccccc1)CC2C(F)(F)F (stereo not given) | 95 | . | . | -16
CC1CCCCC1NS(=O)(=O)c1ccc(Cl)cc1 (stereo not given) | 103 | 100 | 95 | 2
COc1cc(C)c(S(=O)(=O)Nc2ccc(-c3ccc(N4CCCC4)nn3)cc2)cc1C | 103 | . | . | -51
CCOC(=O)COc1ccccc1C1C(C(=O)OCC)=C(N)Oc2n[nH]c(-c3ccccc3)c21 (stereo not given) | 106 | 97 | 92 | -15
OCC(CO)(CO)N=Cc1cc(Br)ccc1O | 100 | 111 | 101 | -4
Oc1oc(-c2ccccc2)nc1/C=N/c1ccccn1 | 95 | 89 | 87 | .
Cc1ccc2snc(C(=O)N3CCN(C(=O)c4ccc(Br)cc4)CC3)c2c1 | 103 | . | . | -34
Cc1nnsc1-c1nnc(C2CCCCC2)o1 | 103 | 93 | 78 | -26
CC(=O)NCCOc1cc(C)ccc1C(C)C | 99 | 99 | 99 | 7
COC(=O)C1=C(Nc2ccc(OC(=O)Nc3ccc(OC(F)(F)F)cc3)cc2)CSC1 | 98 | 106 | 85 | -19
COc1ccc(CNC(=O)CN2C(=O)CSc3ccc(S(=O)(=O)N(C)C)cc32)cc1 | 108 | 121 | 96 | .
O=C(NCC1CCN(CCc2ccccc2)C1)Nc1ccc(F)cc1 (stereo not given) | 106 | . | . | -14
Cn1c(=O)n(Cc2ccc(F)cc2)c(=O)c2c1nc1oc(-c3ccc(Cl)cc3)cn12 | 106 | 97 | 91 | -20

Compound profiles (already shown).
Shown for `CCOC(=O)c1c(NC(C)=O)no[n+]1[O-]` : GIV Gai3 FP = 105; Sa growth 42C = 114; Sa growth 42C second temp = 94; HCMV NEC inh = .
Shown for `COc1ccc(-c2[nH]ncc2C(=O)NC2CCCCC2)cc1` : GIV Gai3 FP = 104&101; Sa growth 42C = 89; Sa growth 42C second temp = 91; HCMV NEC inh = -28

4 neighbouring compounds from above:
SMILES | GIV Gai3 FP | Sa growth 42C | Sa growth 42C second temp | HCMV NEC inh
CC(=O)NCCOc1cc(C)ccc1C(C)C | 99 | 99 | 99 | 7
COC(=O)C1=C(Nc2ccc(OC(=O)Nc3ccc(OC(F)(F)F)cc3)cc2)CSC1 | 98 | 106 | 85 | -19
COc1ccc(CNC(=O)CN2C(=O)CSc3ccc(S(=O)(=O)N(C)C)cc32)cc1 | 108 | 121 | 96 | .
O=C(NCC1CCN(CCc2ccccc2)C1)Nc1ccc(F)cc1 (stereo not given) | 106 | . | . | -14

Shown tab-delimited: three of the compounds above
Compound	GIV Gai3 FP	Sa growth 42C	Sa growth 42C second temp	HCMV NEC inh
Cc1ccc2c(c1)CCCN2CC(=O)NCC(F)(F)F	.	100	101	-3
Cc1noc(C)c1CSc1ncccc1C(=O)N1CCN(S(=O)(=O)c2ccccc2C#N)CC1	.	72	89	-27
Clc1ccc(-c2cc3nnc(-c4ccccc4)nc3s2)cc1	101	100	108	13
